Screening results from PubChem.
D2 PAM = positive allosteric modulators of human D2 dopamine receptor; P14416; hit rate 0.23% among 360,000; DiscoveRx D2 beta-arrestin cells, luminescence, 90 min; 100% = 57 uM dopamine signal; AID 624464; potentiation, % (test concentration not listed); active = potentiation of 50% or more; inconclusive = 30% to 50%; inactive = 30% or less;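 also: compound concentration not given in the record; tested on top of an EC20 dose of dopamine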
Target sequence (P14416 whole entry, looked up): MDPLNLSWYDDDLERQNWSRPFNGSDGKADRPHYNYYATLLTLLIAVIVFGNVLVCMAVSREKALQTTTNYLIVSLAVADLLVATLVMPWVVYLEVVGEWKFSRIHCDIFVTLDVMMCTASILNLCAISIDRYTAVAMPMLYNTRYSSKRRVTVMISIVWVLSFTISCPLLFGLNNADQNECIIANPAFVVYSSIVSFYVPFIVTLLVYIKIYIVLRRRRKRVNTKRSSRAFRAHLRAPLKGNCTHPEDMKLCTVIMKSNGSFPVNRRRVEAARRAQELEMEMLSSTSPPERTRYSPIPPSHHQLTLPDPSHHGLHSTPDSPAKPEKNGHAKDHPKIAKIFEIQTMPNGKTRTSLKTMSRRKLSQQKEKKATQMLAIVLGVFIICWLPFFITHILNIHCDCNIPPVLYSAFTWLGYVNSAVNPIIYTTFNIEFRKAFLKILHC
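PathHunter D2 cells, attached overnight at 37 deg C, received compound in DMSO plus dopamine at EC20 (50 nM final) for 90 min at 37 deg C. Beta-arrestin recruitment was read as luminescence after 1 h with detection reagent at ambient temperature.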
gsp ag = gsp mutant agonism; gsp mutant cells, cAMP HTRF, 30 min; control for the full effect not named in the record; Potency, µM (highest dose often 76.9 µM), inactives show at the highest dose activation (cAMP increase), usual class: activators; hit rate 0.13% among 340,000; active = well fitted activation curve with a large enough effect; inconclusive = small, poorly fitted or top-dose-only effect, or another doubt; inactive = no such curve, though single readings can be large or run the other way; cell line not stated here;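 also: phosphodiesterase inhibitor Ro 20-1724 added with compounds to block cAMP breakdown; potency is read from the fitted curve at half-maximal effect; nearly all actives have a fitted effect of over 60% in size; about a fifth of the inactives were tested at one dose only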
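Cells in DMEM/10% FBS with G418 were pretreated with compounds in DMSO plus […] (300 uM stock) for 30 min at 37C. cAMP was measured by HTRF (cAMP-d2 plus anti-cAMP antibody-K) after 30 min at room temperature.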
CtBP-E1A blk = CtBP/E1A binding inhibition. activity change, % (concentration not given with the values). hit rate 0.49% among 340,000. AID 651724. AlphaScreen GST-E1A/His-CtBP binding, 1536-well; stronger effect = lower value; control for the full effect not named in the record; in the data active means activity change below about -65%; inconclusive means about -30% to -65%; inactive means above about -30%; also: % is scaled to controls: 0 for no effect and ±100 for the full control effect
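Homogeneous bead-based format: GST-tagged E1A captured on glutathione donor beads, His-tagged CtBP on nickel acceptor beads; compounds precede bead addition by 2 h at 37 °C.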
D2 ag = activates the human D2 dopamine receptor; P14416; DiscoveRx PathHunter D2 beta-arrestin, luminescence, 90 min; 100% = 57 uM dopamine signal; activation, % (no concentration beside the values); hit rate 0.084% among 360,000; AID 624465; in the data active = activation above about 40%; inconclusive = about 15% to 40%; inactive = below about 15%; also: compound concentration not given in the record; the text of the record calls up to 30% inactive
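Agonist mode: compounds alone added to overnight-plated D2 PathHunter cells for 90 min at 37 C, with 57 uM final dopamine (EC100) defining full response. Beta-arrestin recruitment detected by chemiluminescent reagent, read after 1 h at ambient temperature.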
Six1-Eya2 blk = inhibitors of human Six1/Eya2 interaction. Q15475+O00167. AlphaScreen GST-Six1/His-Eya2 binding, biochemical; stronger effect = lower value; control for the full effect not named in the record. activity change, % (concentration not given with the values). hit rate 0.56% among 360,000; in the data active = activity change below about -65%; inconclusive = about -30% to -65%; inactive = above about -30%; also: % is scaled to controls: 0 for no effect and ±100 for the full control effect
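Six1/Eya2 binding was read as AlphaScreen signal after compounds were pinned into GST-Six1 plus His-tagged Eya2 (5X stock 250/500 nM) in pH 8.0 Tris/NaCl/TCEP buffer, beads added, then incubated 1 h, 37 C, dark.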
gsp antag = antagonizes gsp, the McCune-Albright syndrome mutation; gsp-mutant cells, cAMP HTRF, 30 min; control for the full effect not named in the record; Potency, µM (series often up to 76.9 µM), for the others: at the highest dose activity change, negative = inhibition, hits mostly inhibitors; hit rate 0.4% among 340,000; AID 624288; active = falling curve of any shape with a large fitted effect; inconclusive = falling curve, mostly with a smaller effect; inactive = flat or rising curve; cell line not stated here;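 also: intracellular cAMP measured with PDE inhibitor Ro 20-1724 present during compound exposure; potency is read from the fitted curve at half-maximal effect; % is scaled to controls: 0 for no effect and ±100 for the full control effect; nearly all actives have a fitted effect of over 65% in size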
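G418-selected cells were plated in DMEM/10% FBS for 16-24 h at 37C, then treated with compounds plus the PDE inhibitor […] (300 uM solution added) for 30 min at 37C. Intracellular cAMP was measured by HTRF after 30 min lysis at room temperature.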
Active calls of the source: *; ? = inconclusive; nt = not tested or not shown; [ ] = dose if it differs, or a comment. Rows are unselected; overall some 1.4% were active at least once.

Values run as follows: D2 PAM	gsp ag	CtBP-E1A blk	D2 ag	Six1-Eya2 blk	gsp antag
> CCC(C)/C(C)=N/NC(=O)c1ccc(CSc2nc3ccccc3s2)cc1 (stereo not drawn)
    0	6%	-5	-8.4	3	4%
> CCC(C)c1ccc(NC(=S)NCCn2cc(Cl)cn2)cc1 (stereo not drawn)
    -9	-5%[15.4 µM]	-1	-12	-5	-3%
> CC(NC(=O)COC(=O)Cc1ccccc1[N+](=O)[O-])c1ccccc1 (stereo not drawn)
    -14	?	-2	-3.2	-7	1%
> Cc1c(C)n(Cc2ccc(Cl)cc2)c2ccc(C(=O)NCCN3CCOCC3)cc12
    -28	8%	-19	-1.5	-14	-3%
> CN(CC(=O)Nc1ccc(Cl)c(C(F)(F)F)c1)C(=O)CCc1nc2ccccc2c(=O)[nH]1
    -25	9%	1	-3.4	1	9%
> Cc1cc(C)cc(NC(=O)C2CCCN(S(=O)(=O)c3c(C)noc3C)C2)c1 (stereo not drawn)
    -9	-30%[inhibitor]	nt	3.1	1	2%
> Cc1ccc(CCNC(=O)c2sc3nc4n(c(=O)c3c2C)CCC4)cc1
    -5	5%	-12	4.7	-4	-9%
> COc1ccc(CCN2CC(C(=O)OC(C)C(=O)Nc3ccc(NC(C)=O)cc3)CC2=O)cc1OC (stereo not drawn)
    -22	-3%	24	-0.5	0	9%
> O=C(O)Cc1csc(Nc2cccc(Cl)c2)n1
    10	5%	0	2.1	-2	-4%
> Cc1ccc(NC(=O)C/C(N)=N/OC(=O)Nc2cccc(C)c2)cc1
    22	14%	nt	1.5	-2	11%
> COC(=O)c1cc(C)ccc1OCc1ccc([N+](=O)[O-])cc1
    -1	-3%[15.4 µM]	-21	-4.3	5	-13%
> O=C(c1cc(=O)c2ccccc2o1)N1CCN(c2cccc(Cl)c2)CC1
    0	-4%[15.4 µM]	-6	-4.4	-3	-8%
> CCCCN(C)CCNC(=O)CCn1nc(-c2ccc(Cl)cc2)ccc1=O
    -6	11%	nt	1.4	2	-4%
> CCCCCCCSc1nnc(N)s1
    -4	12%[15.4 µM]	3	-3.7	3	17%
> CCN(C(=O)c1cnc(NC(C)C)cc1C(F)(F)F)c1ccc(Cl)cc1Cl
    -11	5%[15.4 µM]	1	-5.3	0	?
> CCN(CC)C(=O)Cn1cc(S(=O)(=O)CC(=O)Nc2ccc(C(N)=O)cc2)c2ccccc21
    -13	19%	1	-3.3	-2	0%
> Cc1ccc(-c2nc(CN(C)Cc3cccc4cnccc34)c(C)o2)s1
    -14	-10%	nt	0.3	0	-28%
> CCn1c(CC(=O)Nc2ccccc2)nnc1SCC(=O)NC1=NCCS1
    -2	-9%[15.4 µM]	18	0.7	1	-7%
> Cc1cccc(N=C2NC(=O)/C(=C3/C(=O)N(C)c4ccccc43)S2)c1C
    -44	-3%	-18	-9.7	?	-24%
> CC(Oc1cccc(Cl)c1)C(=O)Nc1nc(-c2ccccn2)cs1 (stereo not drawn)
    3	10%[15.4 µM]	-74*	9.9	?	-33%
> CCOC(=O)C1=C(c2ccccc2)OC(N)=C(C#N)C1c1ccc(Cl)s1 (stereo not drawn)
    -7	4%	2	2.6	0	-4%
> COc1cc(OC)c2ccc(=O)oc2c1C(CC(=O)N1CCCC1)c1ccc2c(c1)OCO2 (stereo not drawn)
    -4	nt	2	1.2	-11	-2%
> O=c1nc(N/N=C/c2ccco2)cn[nH]1
    -6	-25%[15.4 µM]	-29	-5.9	-28	-15%
> COc1ccc(CC(=O)Nc2cccc(-c3ccc4nnc(C)n4n3)c2)cc1OC
    0	18%	-8	0.1	-23	-6%
> O=[N+]([O-])c1ccc2nn(Cc3ccccc3)cc2c1
    -3	-7%	nt	2.1	-5	-2%
> Cc1ccccc1OCCn1cc(/C(N)=N/O)c2ccccc21
    25	1%	1	6.8	-4	9%
> CC(=O)N1CCN(c2ccc(NCc3ccc(C)s3)cc2)CC1
    5	?	-6	?	16	-23%
> CN(Cc1ccco1)S(=O)(=O)c1nnc(NC(=O)c2cccc(Cl)c2)s1
    -13	-1%	9	-1.2	10	-34%
> O=C(Nc1ccc2c(c1)OCCO2)NC1CCCCC1
    -22	13%	2	-3.4	2	6%
> CCCc1ccc(OCCNC(=O)c2ccco2)cc1
    -2	?	-17	3.3	-2	7%

Record cards, as listed above.
`COc1ccc(CC(=O)Nc2cccc(-c3ccc4nnc(C)n4n3)c2)cc1OC` across the screens: D2 PAM = 0; gsp ag = 18%; CtBP-E1A blk = -8; D2 ag = 0.1; Six1-Eya2 blk = -23; gsp antag = -6%
`CC(=O)N1CCN(c2ccc(NCc3ccc(C)s3)cc2)CC1` across the screens: D2 PAM = 5; gsp ag = ?; CtBP-E1A blk = -6; D2 ag = ?; Six1-Eya2 blk = 16; gsp antag = -23%

Other records follow.
Values run as follows: D2 PAM	gsp ag	CtBP-E1A blk	D2 ag	Six1-Eya2 blk	gsp antag
> CCCc1c(C(=O)N/N=C(\CC)c2ccccc2)nnn1-c1nonc1N
    -12	-56%[inhibitor]	4	-2.9	5	nt
> N#Cc1nc(-c2ccccc2F)oc1NC1CCCCC1
    -2	8%	-2	6.6	-6	-16%
> CCN(CC)c1ccc(C2C(C(=O)OCCOC)=C(C)NC3=C2C(=O)CCC3)cc1 (stereo not drawn)
    -10	-1%	3	-3.9	-1	6%
> COc1cccc(C(O)c2nc(-c3cccc4cccnc34)cs2)c1 (stereo not drawn)
    -8	nt	-4	4.0	2	nt
> CC1CCCCN1C(=O)c1cc(S(=O)(=O)N2CCCCC2)c[nH]1 (stereo not drawn)
    3	-30%	7	13	5	4%
> O=C(O)CN1C(=O)SC(Nc2ccccc2C(=O)O)C1=O (stereo not drawn)
    -23	11%	2	-3.0	4	2%
> Cc1csc(=O)n1CC(=O)OCC(=O)Nc1ccccc1C(C)C
    2	20%	3	5.4	0	-3%
> CN(C(=O)c1cccc(NC(=O)Cc2cccc(NC(=O)C3CCCN(C(=O)C4CCCCC4)C3)c2)c1)C1CC1 (stereo not drawn)
    4	nt	2	1.0	8	-7%
> COc1cc(C(=O)OCC(=O)N2CCNC2=O)cc(Cl)c1OC
    -14	32%	6	1.4	4	3%
> CCOC(=O)N1CCN(C(=O)Cc2ccc(C)cc2)CC1
    -7	12%	-8	1.7	3	-7%
> O=C(c1ccc(-n2cccc2)cc1)N1CCOCC1
    -8	-35%	4	-3.1	-1	-2%
> O=Cc1ccc(OCc2ccc3c(c2)OCO3)cc1
    -10	-46%[inhibitor]	nt	-2.0	11	4%
> COc1ccccc1NC(=O)CSc1nnnn1Cc1ccccc1
    -15	-29%	9	-1.5	5	9%
> COc1ccc(-c2nnc(NC(=O)c3cc(Cl)ccc3Cl)o2)cc1
    2	-4%	-14	-3.0	-4	-23%
> O=C(NCCc1cccs1)C(c1ccccc1)c1ccccc1
    3	3%	nt	2.4	2	-17%
> Cc1ccc(CN(C)C(=O)CC2C(=O)NCCN2CC2CCCCC2)cc1 (stereo not drawn)
    -10	1%	0	-3.1	1	2%
> COC(=O)Cc1c(C)[nH]n(-c2cc(Cl)cc(Cl)c2)c1=O
    -7	7%[15.4 µM]	-14	-2.8	-3	-9%
> O=C(O)c1[nH]c2ccc([N+](=O)[O-])cc2c1-c1ccccc1
    -8	-39%	-18	-2.4	-13	8%
> N/C(=N\OC(=O)COc1ccc2ccccc2c1)c1ccccn1
    6	-50%[inhibitor]	5	1.4	2	-16%
> COc1c2c(cc3oc(=O)c4c5ccc(O)cc5oc4c13)OC(C)(C)CC2
    3	nt	7	-2.2	0	-6%
> COCCN1C(=O)C(O)=C(C(C)=O)C1c1ccc(OC)c(OC)c1 (stereo not drawn)
    2	-8%	-4	-0.7	16	2%
> COc1ccccc1CNc1nc2nc(C)c(C)c(=O)n2[nH]1
    -3	-37%[inhibitor]	3	-2.1	0	6%
> CCOc1cccc(CNCCNC(=O)c2nonc2N)c1
    -16	9%	5	-2.0	0	0%
> COc1cccc(C(=O)Nc2cc(C(=O)NCc3ccc(C)cc3)ccc2N2CCC3(CC2)CC(c2cccc(Br)c2)=NO3)c1
    -13	-40%[inhibitor]	-10	-1.9	2	5%
> O=C(Nc1cc(=O)c2ccccc2o1)N1CCCCC1
    -13	17%	-10	-0.7	1	-2%
> COc1ccc2nc(SCc3ccccc3)nc(C)c2c1
    -5	-8%[15.4 µM]	30	1.8	50	-15%
> O=[N+]([O-])c1ccc(OCc2nnc(-c3ccccc3)o2)cc1
    -4	18%	7	-3.3	-2	0%
> Cc1nn(Cc2noc(C(=O)NCCc3ccccn3)n2)c(C)c1Br
    4	27%	6	-0.4	-3	5%
> CC(C)Nc1nc(NC(N)=S)nc(NC(C)(C)C)n1
    -5	2%[15.4 µM]	-4	-0.5	-8	-10%
> Cc1ccccc1OCCCCc1c(C)n[nH]c1C
    -5	3%	2	4.3	0	-7%
> C=CCN(CC(=O)NC1CCS(=O)(=O)C1)S(=O)(=O)c1ccccc1C(F)(F)F (stereo not drawn)
    -2	4%	9	-2.0	8	5%
> O=c1/c(=C\c2ccc(F)cc2)sc2n1CCCN=2
    -3	0%[15.4 µM]	-2	1.9	-1	-9%
> O=C(c1ccc(F)cc1)C1CCN(C(=O)c2ccccc2F)CC1
    -12	-8%	9	-5.9	1	3%
> Cn1c(=O)c2c(nc(NCc3ccc4c(c3)OCO4)n2Cc2ccc(F)cc2)n(C)c1=O
    16	16%	-12	7.0	-21	15%
> COc1ccccc1C1CC(c2ccc(Br)cc2)=NN1C(=O)c1cccnc1 (stereo not drawn)
    -8	10%	-12	1.8	-17	-28%
> O=C(CCn1c(=O)c2cccn2c2ccccc21)Nc1ccc(F)cc1
    -22	-14%	-23	-3.6	-16	-24%
> C#CCOCCOCCOCCNc1nc(N2CCN(C(=O)Cn3cc(CC(C)O)nn3)CC2)nc(N2CCN(C(=O)[C@H](C)n3cc(CCCN=C(N)N)nn3)CC2)n1 (stereo partly drawn)
    -16	nt	8	-6.6	5	-8%
> Cc1ccc(CNc2ccc(O)cc2)cc1
    70*	0%	?	?	-26	-5%
> COc1ccc(Cl)cc1NC(=S)N(Cc1cccnc1)Cc1ccco1
    2	-5%[15.4 µM]	0	1.6	-10	-13%
> COc1ccccc1-c1coc2cc(OCC(=O)OCc3ccccc3)ccc2c1=O
    -21	-20%	5	-1.0	5	-25%
> CCCOC(=O)C1=C(C)NC2=C(C(=O)CCC2)C1c1cc(OC)ccc1OC (stereo not drawn)
    -1	13%	-19	0.2	10	-6%
> COCc1nnc(NC(=O)CC(c2ccccc2)c2ccccc2)s1
    -12	-45%[inhibitor]	3	-2.6	-3	9%
> Cc1ccc(S(=O)(=O)N2CCN(C(=O)c3ccco3)CC2)c(C)c1
    -8	-20%	-3	-4.4	0	2%
> COC(=O)CSc1nnc(-c2ccc(S(=O)(=O)N3CCCCC3)cc2)o1
    0	-1%	1	-2.4	4	-15%
